# Assay outcomes from PubChem.
# KCNQ2 block: KCNQ2 potassium channel inhibitors, primary screen, cell-based, CHO-K1, FluxOR thallium flux, B-score (AID 2156). 310,000 tested, 1.1% active. Potassium voltage-gated channel subfamily KQT member 2 (Rattus norvegicus), O88943. B-score at 10 µM. 20 min; active compounds read low; only compounds with negative scores are shown here; some inactives read as strong as hits;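 active means fluorescence ratio B-score at most minus 3 library SDs, with starting brightness B-score within 2 library SDs, cut at about -5.5 in these data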
# Target sequence (O88943 whole entry, looked up): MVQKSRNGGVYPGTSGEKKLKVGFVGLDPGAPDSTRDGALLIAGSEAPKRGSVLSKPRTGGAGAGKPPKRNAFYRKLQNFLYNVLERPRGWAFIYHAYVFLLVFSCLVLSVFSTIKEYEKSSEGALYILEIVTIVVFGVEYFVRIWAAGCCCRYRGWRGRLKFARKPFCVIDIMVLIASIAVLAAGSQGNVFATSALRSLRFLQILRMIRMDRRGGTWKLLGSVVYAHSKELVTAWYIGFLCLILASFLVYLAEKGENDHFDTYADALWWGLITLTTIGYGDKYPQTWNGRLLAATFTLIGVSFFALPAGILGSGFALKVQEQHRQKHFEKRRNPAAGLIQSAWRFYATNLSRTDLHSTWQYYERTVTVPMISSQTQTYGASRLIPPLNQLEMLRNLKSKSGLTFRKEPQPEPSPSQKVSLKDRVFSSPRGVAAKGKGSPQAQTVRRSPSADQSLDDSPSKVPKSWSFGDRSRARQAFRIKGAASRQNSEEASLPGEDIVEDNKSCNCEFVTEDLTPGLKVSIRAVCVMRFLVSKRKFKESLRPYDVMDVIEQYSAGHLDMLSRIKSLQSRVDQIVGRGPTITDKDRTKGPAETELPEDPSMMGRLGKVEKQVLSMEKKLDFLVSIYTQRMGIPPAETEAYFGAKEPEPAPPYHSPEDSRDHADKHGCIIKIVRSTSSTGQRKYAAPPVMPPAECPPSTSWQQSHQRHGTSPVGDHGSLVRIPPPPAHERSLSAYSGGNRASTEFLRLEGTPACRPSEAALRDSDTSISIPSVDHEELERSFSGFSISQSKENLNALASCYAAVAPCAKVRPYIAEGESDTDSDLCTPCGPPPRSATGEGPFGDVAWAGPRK
# KCNQ2 block baseline: also measured in KCNQ2 block; calls as there; B-score; measured here: initial fluorescence intensity artifact check;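 brightness before thallium and not channel activity; 0 = typical well and far values either way flag optical interference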
# * hit, by the source's call; i = inactive.
SMILES,KCNQ2 block,KCNQ2 block baseline
COc1cccc(-c2noc(C3CCCN(C(=O)c4ccccc4OC)C3)n2)c1 (stereo unspecified),i,0.98
COc1ccc(NC(=O)CSc2ccc(-c3ccco3)nn2)cc1,i,-0.38
CCOc1ccc(-c2nnn(CC(=O)Nc3ccccc3OC)n2)cc1OCC,i,1.7
CN(CC(=O)Nc1ccc(N2CCOCC2)cc1)CC(=O)Nc1ccc([N+](=O)[O-])cc1Br,i,-0.14
CCCNC(=O)c1cc(-c2ccc(Br)cc2)on1,i,-1.9
COc1ccc(NC(=O)CSc2ccccn2)cc1,i,0.49
COc1ccc2c(c1)CCc1c(C(=O)N3CCc4ccccc4C3)noc1-2,i,0.08
Cc1nn(-c2ccccc2)c(C)c1/C=N/O,i,2.1
Cc1cccc(CCNC(=O)CCS(=O)(=O)c2cc3c(cc2Cl)NC(=O)CO3)c1,i,-0.75
Cc1[nH]n(-c2ccccc2)c(=O)c1/C=N/O,i,0.01
Cc1occc1C(=O)NCc1cccs1,i,0.85
CC1CCN(c2ccc3c(c2)S(=O)(=O)c2ccccc2C3=O)CC1,i,5.1
CC(C)(C)c1ccc(OCC(=O)N2CCCCCC2)c(Br)c1,i,-1.2
Cc1ccc(N(CC(=O)N2CC(=O)Nc3ccccc32)S(=O)(=O)c2ccc3c(c2)OCCO3)cc1,i,-0.32
CCOC(=O)/C(C#N)=C\C=C1C=CN(C)C=C1,i,18

# Whole records from above:
# `CCCNC(=O)c1cc(-c2ccc(Br)cc2)on1` as listed: KCNQ2 block = i; KCNQ2 block baseline = -1.9
# `COc1ccc2c(c1)CCc1c(C(=O)N3CCc4ccccc4C3)noc1-2` as listed: KCNQ2 block = i; KCNQ2 block baseline = 0.08

# Next entries follow:
SMILES,KCNQ2 block,KCNQ2 block baseline
CSc1nc(C)cc(OCCNS(=O)(=O)c2ccc(C)cc2)n1,i,0.06
Cc1ccc(S(=O)(=O)N2CCCCC2)cc1NC(=O)C1CC(=O)N(Cc2ccccc2)C1 (stereo unspecified),i,1.2
Cc1cccc(Cl)c1OCCN1CCCC1,i,-0.48
COC(=O)c1ccc(COC(=O)c2cnccn2)cc1,i,-0.58
COc1ccc(C2=CC3=C(Br)C(=O)C(C)(OC(=O)c4ccc(Cl)nc4)C(=O)C3=CO2)cc1 (stereo unspecified),i,-0.04
COc1cc(OC)cc(C(=O)NC(C)CCc2ccccc2)c1 (stereo unspecified),i,-0.07
COc1ccc(S(=O)(=O)N(C)c2ccc(C(=O)NC3CC3)cc2)cc1,i,-0.82
C/C(=N\NC(=S)NCc1ccccc1)c1ccccc1,i,0.7
CSc1ccc(-c2sc(Nc3ccccc3)n[n+]2-c2ccc(F)cc2)cc1,i,-0.83
CCOC(=O)C1CCC2(CC1)C(C#N)=C(N)Oc1n[nH]c(C)c12 (stereo unspecified),i,0.73
O=C(Nc1ccc(F)cc1)c1oc2ccccc2c1NC(=O)C1CC1,i,-0.53
COc1ccc(CN(C)C(=O)COC(=O)c2c(-c3ccccc3Cl)noc2C)cc1,i,0.02
COc1cc(/C=N/NC(=O)c2cccc3ccccc23)cc(OC)c1O,i,1.5
COc1cccc(NC(=O)C(OC(=O)c2ccc([N+](=O)[O-])o2)c2ccccc2)c1 (stereo unspecified),i,0.02
O=C1CCC(=O)N1c1ccc(S(=O)(=O)Nc2cccc([N+](=O)[O-])c2)cc1,i,0.04
CSc1nnc(NC(=O)c2cccc(S(=O)(=O)N3CCOCC3)c2)s1,i,-0.62
Cc1ccc(Oc2ccc(Cl)cc2NC(=O)c2ccc(F)cc2F)cc1,i,-0.22
COc1ccc(NC(=O)Nc2ncccc2C)cc1,i,2.3
CCC(=O)N1CCN(c2ccc(NC(=O)c3ccccc3)cc2)CC1,i,0.48
CCOC(=O)C1CCCN(Cc2cccs2)C1 (stereo unspecified),i,1.7
O=C(Cc1ccccc1[N+](=O)[O-])NNC(=O)Nc1ccc2c(c1)OCO2,i,0.54
COc1ccc(NC(=S)Nc2ccccc2Cl)cn1,i,-0.08
Cc1ccc(NC(=O)c2cccc(S(=O)(=O)N(C)C3CCCCC3)c2)nc1,i,-1.3
Brc1ccc(C2NCCS2)cc1 (stereo unspecified),i,0.31
CC(=O)c1sc(NC(=O)c2cccc(N3C(=O)CCC3=O)c2)nc1-c1ccccc1,i,0.01
COc1ccc(CNC(=O)C2(CC3CC(c4ccccc4)=NO3)CCN(C(=O)CCCCCBr)CC2)cc1 (stereo unspecified),i,-0.58
CCOc1ccc(C(=O)NC2CCN(C(=S)Nc3ccccc3C)CC2)cc1,i,1.8
Cc1cc(C)c(S(=O)(=O)NCc2ccc3c(c2)cc(C)n3C)c(C)c1,i,0.78
CC(C)(C)c1ccc2c(c1)C(=O)c1ccccc1C2=O,i,-0.19
COc1cccc(C(=O)NCCSc2ccc(Br)cc2)c1,i,-0.31
CCOC(=O)N1CCc2c(sc3nc[nH]c(=O)c23)C1,i,1.2
O=C(O)CCn1nnc2ccccc21,i,2.4
O=C(Nc1ccccc1)N(C1=NCCC1)c1ccc(OC(F)F)cc1,i,-0.64
CC(=O)Nc1cccc(NC(=O)CSc2nc(=O)n3cccc(C)c3n2)c1,i,-1.6
Cc1c(-c2ccccc2)sc(Br)c1C(=O)N1CCOCC1,i,0.11
O=C(Oc1ccc(C(=S)N2CCOCC2)cc1)c1cccc([N+](=O)[O-])c1,i,-0.07
Cc1ccc(Nc2nc3ccccc3n3cnnc23)cc1C,i,0.4
NC(=S)N/N=C/c1coc2ccc(O)cc2c1=O,i,1.8
CC(=O)c1cccc(OCc2cc(C(=O)N(C)CCc3cnn(C)c3)no2)c1,i,1.5
Cc1cc(C)c2nc(-c3cccc(Cl)c3)c(C)c(C(=O)N3CCOCC3)c2c1,-8.8*,-0.91*
CCC(C)c1nc2c(c(N3CCC3=O)c1-c1ccccc1)CCCC2 (stereo unspecified),i,-0.1
O=C(COc1ccc2oc(-c3ccco3)cc(=O)c2c1)N1CCCCC1,i,-1.1
N#CCC(=N)N1CCN(c2cccc(Cl)c2)CC1,i,-0.93
CC(C)(C)NC(=O)COC(=O)c1cc(F)c(F)cc1Cl,i,-0.34
COc1ccc(N2CCN(C(=O)CN3CCN(c4nc(-c5ccc(F)cc5)cs4)CC3)CC2)cc1,i,1.4
COc1cccc(NC(=O)CCNS(=O)(=O)c2ccc3c(c2)CC(C)N3C(=O)C2CC2)c1 (stereo unspecified),i,-0.91
CCC(C(=O)N1CCOCC1)n1nc(C)n2c(cc3cc(C)ccc32)c1=O (stereo unspecified),i,0.03
COc1ccc(C(=O)NCCNC(=O)c2ccc(OC)cc2)cc1,i,-0.08
O=C(Nc1ccc(Cc2ccc(NC(=O)C3CC3)c(O)c2)cc1O)C1CC1,i,1.6
COc1ccnc(CSC(N)=Nc2ccc(F)cc2)c1,i,0.48
Clc1ccc(OCc2cc(-c3ccccc3)no2)c(Cl)c1,i,0.14
Cc1ccc(S(=O)(=O)N2CCC(NC(=O)c3ccccc3)CC2)cc1,i,-0.31
O=C(COc1cc(F)ccc1[N+](=O)[O-])Nc1cccc(Br)c1,i,0.04
N#Cc1ccccc1/C=N/Nc1nc(-c2ccccc2)c2cc(Br)ccc2n1,i,2.5
CCCCn1c(=O)c(C(C)=O)c(O)c2ccccc21,i,0.03
CCOc1ccc(OCCCC(=O)NCCOc2ccccc2OC)cc1,i,3.5
N#C/C(=C\c1c(N2CCCCCC2)nc2ccccn2c1=O)C(N)=O,i,-0.67
Cc1cc(F)ccc1S(=O)(=O)N1CCCCC1CCNC(=O)C(=O)NCCN1CCOCC1 (stereo unspecified),i,-0.2
COc1cccc(N=CC=C2OC(C)(C)C(C)(C)O2)c1,i,-0.38
CN(CC(=O)Nc1ccc(S(=O)(=O)N2CCCC2)cc1)CC(=O)Nc1ccc(F)c(F)c1F,i,0.03
# (further entries)
SMILES,KCNQ2 block,KCNQ2 block baseline
O=C1CCCc2nc(N3CCN(C(c4ccccc4)c4ccccc4)CC3)ncc21,i,2.4
O=c1cc(N2CCCCC2)c(-c2ccccc2)nn1Cc1ccc(Cl)cc1Cl,-7.7*,0.97*
O=C(COc1ncnc2ccccc12)NC1CCS(=O)(=O)C1 (stereo unspecified),i,-0.03
CCN1CCCC1CNC(=O)C1c2ccccc2C(=O)N(CCOC)C1c1ccc(F)cc1 (stereo unspecified),i,0.44
CC(C)NCC(O)COC1C2CC3CC(C2)CC1C3 (stereo unspecified),i,-0.54
CN(CCCC1CCCC1)C(=O)c1cc(COc2ccc(F)c(F)c2)on1,i,0.16
COc1ccc(CNC(=O)C(=O)NCC2OCCN2S(=O)(=O)c2ccc(F)cc2)cc1 (stereo unspecified),i,-0.34
CCN(CC)S(=O)(=O)c1cc(C(=O)n2cccn2)c(Cl)cc1Cl,i,0.18
O=C(c1cc2ccccc2o1)c1nc2c(n1O)CCCCC2,i,1.4
CCOc1ccc(/C=N/NC(=O)C2CCCC2)c(OCC)c1,i,-1.7
CCCN(CC(=O)Nc1ccccc1C)C(=O)c1ccc(-c2ccc(C(C)=O)cc2)o1,i,-0.53
COc1ccc(/C=N/N(Cc2ccccc2)c2ccccc2)cc1O,i,-0.71
CSC1=NCCN1C(=O)Cc1cccs1,i,0.14
CC1CCC2(CC1)C(Nc1cccc(Cl)c1)=NC(=S)N2CC#N (stereo unspecified),i,0.23
COc1ccc(Cc2nc3ccc(C(=O)N4CCC[C@H]4CO)cc3o2)cc1,i,-0.56
O=C(Nc1sc2c(c1C(=O)c1ccccc1)CCCC2)c1cccnc1,i,-1.3
Cc1ccc(OCC(=O)Nc2ccc3c(c2)OC(F)(F)O3)c([N+](=O)[O-])n1,i,0.15
Cc1nc(NC(=O)CCN2C(=O)C3CC=CCC3C2=O)sc1C (stereo unspecified),i,0.53
COc1ccc(Cl)cc1NC(=O)CN(C)C(=O)c1cc2c(s1)CCC(C)C2 (stereo unspecified),i,-0.14
COc1ccc(N2CCN(C(=O)c3ccc(COc4ccc5c(C)cc(=O)oc5c4)cc3)CC2)cc1,i,1.1
Cc1nn(-c2ccccc2)c(N2CCCC2)c1/C=N/Nc1ccc(S(=O)(=O)Nc2ccccc2)cc1[N+](=O)[O-],i,-2.3
COc1cc(/C=N\Nc2ccc([N+](=O)[O-])cn2)ccc1OCC(=O)O,i,-0.87
CN(C)CCCN1C(=O)c2oc3ccccc3c(=O)c2C1c1cccs1 (stereo unspecified),i,-2.2
NS(=O)(=O)c1ccc(CCNC(=O)C(=O)NCC2OCCN2S(=O)(=O)c2cc(F)ccc2F)cc1 (stereo unspecified),i,-0.51
COCC(=O)Nc1nnc(Cc2ccc(OC)cc2)s1,i,-1.5
c1cncc(CNc2ncnc3sc4c(c23)CCCC4)c1,i,1.4
Cc1ccc(O)c([C@H](CCN(C(C)C)C(C)C)c2ccccc2)c1,i,0.09
CCOCC(=O)Nc1nc(-c2ccccc2)c(CC)s1,i,-1.9
Cc1ccc(CN2C(=O)CSC2c2ccc(F)cc2)cc1 (stereo unspecified),i,-1.1
O=C(CN1C(=O)CCC1=O)NC(=O)NC1CCCC1,i,1.9
O=c1c2ccccc2c2ccccc2c(=O)n1Cc1ccco1,i,-0.4
COC(=O)c1c(NC(=O)C(C)(C)C)sc2c1CCN(Cc1ccccc1)C2,i,0.65
CC1CCN(C2CC(=O)N(c3ccc(Br)cc3Br)C2=O)CC1 (stereo unspecified),i,0.06
CC(=O)C1=C(O)C(=O)N(c2nccs2)C1c1ccc(Br)cc1 (stereo unspecified),i,-1.5
O=C(Nc1cccc(-c2nc3ccccc3s2)c1)C1=COCCO1,i,1.3
CCn1c(=S)sc2c(=O)[nH]c(SCC(=O)Nc3cc(OC)ccc3OC)nc21,i,-1.3
O=C(NCCO)C1(c2ccccc2)CCCC1,i,-1.1
CN(CCCNC(=O)C1CCN(S(=O)(=O)N2CCC3(CC2)OCCO3)CC1)Cc1ccccc1,i,0.23
Cc1ccc2c(cnn2C(=O)CCCC(=O)NCc2ccc(F)cc2)c1,i,-0.01
CCOC(=O)c1c(C)[nH]c(C(=O)C(C)Sc2ccc(Cl)cc2)c1C (stereo unspecified),i,-0.75
CC(C)C(=O)Nc1nnc(SCC(=O)NC2CCCC2)s1,i,-2.5
Cc1ccc2nc(C)c(C(=O)N/N=C/c3cccc([N+](=O)[O-])c3)cc2c1,i,1
COC(=O)c1cc2oc(C)cc2n1CC(=O)Nc1cc(C)cc(C)c1,i,0.51
CCc1ccc[n+](-c2nc3ccccc3nc2C(=C=[N-])C#N)c1,i,0.77
O=C(c1c[nH]c2ccccc12)N1CCOCC1,i,-1.6
COc1cc(SC)ccc1C(=O)NCCCn1ccnc1,i,0.8
COc1cccc(C(=O)Cn2c(NCCO)nc3ccccc32)c1,i,0.43

# Among those listed so far, 15 have a Cl atom.
SMILES,KCNQ2 block,KCNQ2 block baseline
Cc1cccc(CCNC(=O)CCS(=O)(=O)c2cc3c(cc2Cl)NC(=O)CO3)c1,i,-0.75
Cc1cccc(Cl)c1OCCN1CCCC1,i,-0.48
COc1ccc(C2=CC3=C(Br)C(=O)C(C)(OC(=O)c4ccc(Cl)nc4)C(=O)C3=CO2)cc1 (stereo unspecified),i,-0.04
COc1ccc(CN(C)C(=O)COC(=O)c2c(-c3ccccc3Cl)noc2C)cc1,i,0.02
Cc1ccc(Oc2ccc(Cl)cc2NC(=O)c2ccc(F)cc2F)cc1,i,-0.22
COc1ccc(NC(=S)Nc2ccccc2Cl)cn1,i,-0.08
Cc1cc(C)c2nc(-c3cccc(Cl)c3)c(C)c(C(=O)N3CCOCC3)c2c1,-8.8*,-0.91*
N#CCC(=N)N1CCN(c2cccc(Cl)c2)CC1,i,-0.93
CC(C)(C)NC(=O)COC(=O)c1cc(F)c(F)cc1Cl,i,-0.34
Clc1ccc(OCc2cc(-c3ccccc3)no2)c(Cl)c1,i,0.14
O=c1cc(N2CCCCC2)c(-c2ccccc2)nn1Cc1ccc(Cl)cc1Cl,-7.7*,0.97*
CCN(CC)S(=O)(=O)c1cc(C(=O)n2cccn2)c(Cl)cc1Cl,i,0.18
CC1CCC2(CC1)C(Nc1cccc(Cl)c1)=NC(=S)N2CC#N (stereo unspecified),i,0.23
COc1ccc(Cl)cc1NC(=O)CN(C)C(=O)c1cc2c(s1)CCC(C)C2 (stereo unspecified),i,-0.14
CCOC(=O)c1c(C)[nH]c(C(=O)C(C)Sc2ccc(Cl)cc2)c1C (stereo unspecified),i,-0.75

# Some of the compounds tested, so the mix of outcomes need not match the whole.
